VDR inh = Inhibitors of the vitamin D receptor (VDR): qHTS; 400,000 tested, 0.93% active; Potency, µM, inactives show max response, negative = inhibition, most hits filed as inhibitors; VDR-SRC2-3 peptide fluorescence polarization, 2 h; active means well fitted inhibition curve with a large enough effect; inconclusive means small, poorly fitted or top-dose-only effect, or another doubt; inactive means no such curve, though single readings can be large or run the other way; further: series mostly up to about 120 µM
Target sequence (P11473 whole entry, looked up): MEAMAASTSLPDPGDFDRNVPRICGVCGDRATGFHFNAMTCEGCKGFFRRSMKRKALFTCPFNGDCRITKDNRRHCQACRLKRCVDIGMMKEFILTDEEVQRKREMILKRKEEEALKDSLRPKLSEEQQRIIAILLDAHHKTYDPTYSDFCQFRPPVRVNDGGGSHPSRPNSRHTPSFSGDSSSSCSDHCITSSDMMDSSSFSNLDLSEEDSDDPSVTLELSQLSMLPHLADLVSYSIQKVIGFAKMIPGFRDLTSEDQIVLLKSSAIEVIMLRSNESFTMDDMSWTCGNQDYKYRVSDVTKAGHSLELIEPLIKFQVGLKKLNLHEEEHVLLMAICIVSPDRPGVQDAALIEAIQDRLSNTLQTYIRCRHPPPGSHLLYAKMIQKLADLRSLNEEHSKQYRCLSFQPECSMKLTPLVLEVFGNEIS
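Two reagent solutions held at 4 deg C in the dark were dispensed, compounds pinned at 23 nl, and the mixture incubated 2 h at room temperature. Read-out: fluorescence polarization of VDR–SRC2-3 peptide binding.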
* hit, by the source's call; ? = inconclusive; & = joins results of further samples. On the % scale 0 is the no-effect control and ±100 the full control effect; potency means the concentration at half of the fitted maximal effect. An excerpt. The share of hits here may be higher or lower than overall.

VDR inh | structure
-9% | CCCCCCC(C)OC(=O)Nc1cccc2ccccc12 (configuration not stated)
-18% | O=C1CC(c2ccc(Cl)cc2)CC(O)=C1C=NCc1ccc(Cl)c(Cl)c1 (configuration not stated)
? | O=C1C=CC(=O)c2c(O)c(N3CCN(CCOCCO)CC3)c(Br)c(O)c21
12% | O=C(Nc1ccc(F)c(F)c1)c1ccc2c(c1)OCO2
-11% | CS(=O)(=O)c1ccc2nc(NC(=O)CCNC(=O)c3ccc(Cl)cc3)sc2c1
-20% | COC(=O)CSc1nnc(CNc2nc(-c3ccccc3)cs2)n1C
-4%&-11%&8% | COC(C)(C)CCCC(C)C/C=C/C(C)=C/C(=O)O (configuration not stated)
-9% | COc1cc(/C=C/C(=O)O[C@H]2[C@H](O[C@@H]3O[C@@H](C)[C@H](O)[C@@H](O)[C@H]3O)[C@@H](O)[C@H](OCCc3ccc(O)c(OC)c3)O[C@@H]2CO)ccc1O

Next part.
VDR inh | structure
-12% | COc1ccc(C2/C(=C(/O)c3ccc(F)cc3)C(=O)C(=O)N2CCCN2CCOCC2)cc1OC (configuration not stated)
4% | CCC(=O)Nc1ccc(NC(=O)CCc2ccccc2)cn1
16%&2% | CCC1CN(C(=O)NCc2cccc(OC)c2)c2cc(Cl)ccc2O1 (configuration not stated)
-1% | O=C(Nc1cc(Cl)ccn1)C1CCN(S(=O)(=O)c2cccs2)CC1
12% | CCOc1ccc2nc(C)cc(Nc3cccc([N+](=O)[O-])c3)c2c1
8%&-1% | CC(C)(C)c1ccc(C(=O)Nc2ccc(O)c3c(=O)cc(-c4ccccc4Cl)oc23)cc1
-15% | Cc1ccccc1Cc1c(C)nc2nc(SCC(=O)NCCCN3CCCC3)nn2c1C
-12% | O=C(O)c1ccccc1-c1ncc(-c2ccccc2)o1

Next part:
VDR inh | structure
4% | Cc1ccc(S(=O)(=O)NNC(=O)CCC(=O)Nc2ccc(C)c(C)c2)cc1
-2% | O=C1CC(c2cc(F)cc(F)c2)c2cc3c(cc2N1)OCO3 (configuration not stated)
10% | CCn1c(SCC(=O)Nc2ccccc2F)nc2c(c1=O)SC(C)C2 (configuration not stated)
-9% | Cc1cc(N2C(=O)C(=O)/C(=C(/O)c3ccccc3)C2c2cccc(Br)c2)no1 (configuration not stated)
-16% | CC1CCc2c(C(=O)NCc3ccccn3)csc2C1 (configuration not stated)
-22% | COc1ccc(C)cc1S(=O)(=O)N(CC(=O)Nc1cccc([N+](=O)[O-])c1)c1ccccc1
0% | COc1ccc(/C=C/C(=O)NNC(=O)c2ccncc2)c(OC)c1
-7% | CN(CC(=O)Nc1cccc(F)c1)C(=O)CCCc1nc2ccccc2c(=O)[nH]1

Next part
VDR inh | structure
-16% | Cc1cc(C(F)F)nn1CC(=O)NC1CCCC1
-7% | CN(c1ccccc1)S(=O)(=O)c1cccc(NC(=O)CSc2n[nH]c(N)n2)c1
-16% | COc1cccc(C=O)c1OCCN1C(=O)c2ccccc2C1=O
-19% | COc1cc(Cl)ccc1OCc1cc(C(=O)N2C[C@@H]3CCC[C@H]2C3)no1
-13% | Cc1ccc(-n2cccn2)c(CN2CCCC(CNC(=O)c3ccc(F)cc3)C2)c1 (configuration not stated)
18% | COCCNC(=O)c1ccc2c(c1)ncn2-c1cc(C)ccc1OC
3% | CC(Nc1nc(N2CCOCC2)nc2ccccc12)c1ccccc1 (configuration not stated)
-6% | O=C(NCC1CCCO1)c1cccc(Oc2ccc([N+](=O)[O-])cc2Cl)c1 (configuration not stated)

The listing continues:
VDR inh | structure
2% | Cc1ccc(S(=O)(=O)N2CCN(Cc3ccco3)CC2)cc1C
10% | O=C(CN(Cc1ccco1)C(=O)CCC(=O)Nc1ccccn1)NCCc1ccccc1
? | NNc1cc(C(=O)O)ccc1Cl
20% | Cc1ccc(-c2nn(C)c(=O)c3ccccc23)cc1S(=O)(=O)N1CCOCC1
14% | CC(Oc1ccccc1)C(=O)N1CCN(c2ccc(N3CCCCCC3)nn2)CC1 (configuration not stated)
8% | O=C(Nc1ccc(Br)cc1)N1CCCCCCC1
-9% | O=C1/C(=C/c2cccc(O)c2)SC(=S)N1CC1CCCO1 (configuration not stated)
14% | c1csc(CSc2nc3ccccc3s2)c1

New compounds follow:
VDR inh | structure
11% | O=c1c(-c2ccccc2)nc2cncnc2n1C1CC1
14% | CCN(CCn1cccn1)Cc1c(C(=O)N2CCCCCCC2)nc2ccc(Cl)cn12
-6% | CCC1(c2ccccc2)NC(=O)N(CC(=O)Nc2ccccc2N2CCCCC2)C1=O (configuration not stated)
2% | CCNC1CCS(=O)(=O)C1 (configuration not stated)
11% | Nc1cccnc1S(=O)(=O)c1ccccc1
-19% | CCOc1ncccc1C(=O)OCC(=O)N1CCc2ccccc21
-19% | O=C(CSc1nnc(SCc2cccc3ccccc23)s1)Nc1ccc(C(=O)O)cc1
-18% | COc1ccc(Br)cc1C(=O)Nc1ccc(C(=O)O)cc1

The list continues.
VDR inh | structure
-8% | Cc1c(C(=N)C(C#N)C#N)c(=N)oc2c1ccc1ccccc12
15% | O=C(O)c1ccc(S(=O)(=O)N2CCC(Cc3ccccc3)CC2)cc1
11% | CCn1cc(S(=O)(=O)NC(C)c2cc(OC)ccc2OC)cn1 (configuration not stated)
1% | O=C(Cc1n[nH]c(=O)c2ccccc12)OCC(=O)c1ccc2c(c1)OCCO2
-3% | COCCN(C(=O)Cc1ccc(OC)c(OC)c1)c1nc(-c2cc(OC)ccc2OC)cs1
0% | COc1ccc(-n2cc(CNCCN3CCOC3=O)c(-c3ccccc3Cl)n2)cc1
2% | CC(C)(CNC(=O)c1ccc(Cl)c(S(=O)(=O)N2CCc3ccccc3C2)c1)N1CCOCC1
? | C/C(CC(=O)Nc1ccc(F)cc1)=N\NC(=O)COc1ccccc1

Going on with the list.
VDR inh | structure
-13% | CC(C)N(C(=O)CN1CCN(C(=O)C2COc3ccccc3O2)CC1)C(C)C (configuration not stated)
-6% | COc1cccc(CN2CCNC(=O)C2CC(=O)O)c1OC (configuration not stated)
-17% | CCOc1ccc(OCCC(=O)OCC(=O)Nc2cc(C)nn2-c2ccccc2)cc1
12% | CCOc1[nH]n(-c2ccc(Cl)cc2)c(=O)c1C=Nc1ccc(Cl)cc1
-11% | COc1ccc(C2C(C(=O)Nc3cccc(C)n3)CCC(=O)N2c2ccc(OC)cc2)cc1 (configuration not stated)
-1% | Cc1onc(-c2ccccc2)c1C(=O)OCC(=O)Nc1ccccc1
-15% | CN1CCN(Cc2ccc(Sc3ccc(Cl)cc3)c([N+](=O)[O-])c2)CC1
18% | CCc1c(O)nc(SCC(=O)Nc2ccccc2)n(-c2ccccc2)c1=O

Copied from the listing for reference:
VDR inh | structure
-1% | Cc1onc(-c2ccccc2)c1C(=O)OCC(=O)Nc1ccccc1
-15% | CN1CCN(Cc2ccc(Sc3ccc(Cl)cc3)c([N+](=O)[O-])c2)CC1
18% | CCc1c(O)nc(SCC(=O)Nc2ccccc2)n(-c2ccccc2)c1=O

Further records follow:
VDR inh | structure
-10% | COc1ccc(-c2nn(-c3ccccc3)cc2C2NC(=O)NC(C)=C2C(=O)OC(C)C)cc1Cl (configuration not stated)
-9% | CC(=O)c1cccc(OCC(=O)Nc2ccccc2N2CCOCC2)c1
-17% | CC1CCCCN1Cc1c(O)ccc2c(=O)c(-c3nc4ccccc4s3)coc12 (configuration not stated)
-1% | O=C(O)Cn1nnnc1SCC(=O)Nc1ccccc1F
-12% | Cc1ccc(C)c(-c2csc(Nc3ncccn3)n2)c1
7% | CSCCC(NC(=O)c1ccco1)C(=O)NCc1ccc2c(c1)OCO2 (configuration not stated)
-12% | COc1cccc(N2CC(NC(=O)c3cccc(OC)c3OC)CC2=O)c1 (configuration not stated)
-6% | CC(=O)c1cccc(NC(=O)C(C)OC(=O)c2cccc(-n3cnnn3)c2)c1 (configuration not stated)

As entered above.
O=C(O)Cn1nnnc1SCC(=O)Nc1ccccc1F in VDR inh shows -1%
CC1CCCCN1Cc1c(O)ccc2c(=O)c(-c3nc4ccccc4s3)coc12 (configuration not stated) in VDR inh shows -17%
Cc1ccc(C)c(-c2csc(Nc3ncccn3)n2)c1 in VDR inh shows -12%
COc1cccc(N2CC(NC(=O)c3cccc(OC)c3OC)CC2=O)c1 (configuration not stated) in VDR inh shows -12%
CC(=O)c1cccc(OCC(=O)Nc2ccccc2N2CCOCC2)c1 in VDR inh shows -9%

More records follow.
VDR inh | structure
-7% | COc1ccc([C@@H]2CC=C(C(=O)O)[C@H](c3ccc(F)cc3)N2S(=O)(=O)c2ccc(C)cc2)cc1OC
-13% | CC(C)n1c(N2CCN(C(=O)N3CCCCC3)CC2)nc2ccccc21
4% | Brc1csc2ncccc12
2% | CC(C)c1[nH]nc2c1C(c1cccnc1)C(C#N)=C(N)O2 (configuration not stated)
-9% | COc1ccccc1NC(=O)CSc1nc(N)c(C#N)cc1C#N
-3% | CCc1cc2c(=O)n(C(C)C(=O)OC3CCCCC3)cnc2s1 (configuration not stated)
-10% | CCOc1ccc(CCN2C(=O)C(=O)N([C@@H](CC(C)C)CN3CCC[C@@H]3CN3C(=O)C(=O)NC[C@@H]3Cc3ccccc3)C[C@@H]2CC(C)C)cc1
11% | c1ccc(Cc2nnc3n2CCCCC3)cc1

Continuation.
VDR inh | structure
24% | O=C(CSc1nc2ccccc2[nH]1)NCCCn1ccnc1
2% | COc1ccc(-c2nnn(CC(=O)OC3CCCCC3)n2)cc1OC
? | CN(C)c1cccc(C(=O)Nc2cccc(F)c2)c1
-24% | N#CC(=C=[N-])c1nc2ccccc2nc1-[n+]1cccc(NC(=O)c2cccs2)c1
-15% | CC(=O)C(/C=N/c1cc(-c2ccc(C)cc2)nn1-c1ccccc1)=C(\C)O
-1% | Cc1cc(Oc2cccc3c2S(=O)(=O)N(C2CCCC2)CC(COCc2ccccc2)O3)cc(C)c1C (configuration not stated)
13% | Cc1c(C)n(C)c2ccc(C(=O)Nc3cccc4ccccc34)cc12
-1% | CCCn1c(SCC(=O)N(C)C2CCS(=O)(=O)C2)nc2sc3c(c2c1=O)CCC3 (configuration not stated)

An excerpt from above in order of their number in VDR inh, smallest number first.
VDR inh | structure
-18% | COc1ccc(Br)cc1C(=O)Nc1ccc(C(=O)O)cc1
-3% | CCc1cc2c(=O)n(C(C)C(=O)OC3CCCCC3)cnc2s1 (configuration not stated)
14% | CCN(CCn1cccn1)Cc1c(C(=O)N2CCCCCCC2)nc2ccc(Cl)cn12

Carrying on:
VDR inh | structure
23% | Cc1cc2nc(CCl)cc(=O)n2[nH]1
-2% | CC(CCc1ccccc1)NC(=O)COC(=O)C(CCC(N)=O)NC(=O)c1ccc(F)cc1 (configuration not stated)
3% | O=C(COC(=O)CNC(=O)C1CCCCC1)Nc1ccccc1Cl
-1% | O=C(c1ccc(Cl)cc1)N1CCC(C(=O)N2CCN(c3ncccn3)CC2)CC1
-17% | CCC(C)N(C)C1CCN(C(=S)Nc2cccc(SC)c2)CC1 (configuration not stated)
-19% | CC1(C)CC(N2CCCC2)=CC(=[N+]2CCCCCC2)C1
-24% | CCOC(=O)C1(CCCc2ccccc2)CCN(Cc2cnc(C)s2)CC1
3% | CC1CN(C(=O)/C=C/c2ccc(SC(F)F)cc2)CC(C)O1 (configuration not stated)

(listing goes on)
VDR inh | structure
-1% | CCN1CCN(CC(=O)Nc2cccc(C)c2C)C(=O)C1=O
-23% | COc1ccc(OCCCC(=O)NNC(=O)c2ccncc2)cc1
-1% | CCC(C)[C@H](NC(=O)[C@@H]1CSC2c3ccccc3C(=O)N21)C(=O)NCC1CCCO1 (some centres not stated)
0% | Cc1ccc(C(=O)Nc2c(C)n(C)n(-c3ccccc3)c2=O)cc1S(=O)(=O)N1CCCCC1
-8% | O=C(Nc1scc(-c2ccccc2)c1C(=O)O)c1ccccc1Cl
0% | COc1cc(C(=O)NCCC(=O)NC2CCC(C)CC2)cc(OC)c1OC (configuration not stated)
-5% | Cc1c(C=O)n(C)n(-c2ccccc2)c1=O
16% | COc1ccc(C(CNC(=O)c2oc3ccc(C)cc3c2C)N2CCOCC2)cc1 (configuration not stated)

(more compounds)
VDR inh | structure
4% | CC1CN(C(=O)COc2ncnc3ccccc23)CC(C)O1 (configuration not stated)
-1% | COC(=O)c1ccc(NC(=O)c2ccc3c(c2)C(=O)N(Cc2cccnc2)C3=O)cc1
5% | O=C(NNC(=O)C1C2CCC(C2)C1C(=O)O)c1cccc(Cl)c1 (configuration not stated)
17% | COc1cccc(-c2nc(-c3ccc(NC(=O)c4ccncc4)cc3)no2)c1
? | Cc1ccccc1NC(=S)Nn1cnnc1
-16% | COc1cc(-c2nnc3sc(-c4ccncc4)nn23)cc(OC)c1OC
? | CC(C)n1c(-c2ccco2)csc1=Nc1cccnc1
10% | CCCCNC(=O)C1CCC(CNS(=O)(=O)c2ccc(Cl)cc2)CC1 (configuration not stated)

Carrying on:
VDR inh | structure
4% | CCCNC(=O)c1ccc2c(c1)S(=O)(=O)c1ccccc1C2=O
4% | CC(=O)c1cc2c(cc1NS(=O)(=O)c1ccc3c(c1)OCCO3)OCO2
-4% | CC(=O)Nc1ccc(S(=O)(=O)NC2=NCN(C(C)C)CN2)cc1
3% | Cc1onc(-c2ccccc2Cl)c1C(=O)N1CCC(Cc2ccccc2)CC1
-9% | CC(C)CCN1CCN(Cc2ccc(C#CC(C)(C)O)s2)CC1CCO (configuration not stated)
2% | COc1cc(OC)cc(C(=O)NCc2cccnc2)c1
24% | Cc1ccc(S(=O)(=O)NCc2ccncc2)cc1

3 compounds out of the list, sorted by length of the SMILES, low to high:
VDR inh | structure
2% | COc1cc(OC)cc(C(=O)NCc2cccnc2)c1
4% | CCCNC(=O)c1ccc2c(c1)S(=O)(=O)c1ccccc1C2=O
-4% | CC(=O)Nc1ccc(S(=O)(=O)NC2=NCN(C(C)C)CN2)cc1
